High-throughput results from PubChem BioAssay.
Mtb H37Rv: M. tuberculosis H37Rv growth inhibitors, H37Rv strain (AID 1626); inhibition, % at 10 µM, or IC50 in µM where a hit was titrated; 220,000 tested, 0.95% active; M. tuberculosis H37Rv growth inhibition; higher % means a stronger effect;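 active means confirmed in a dose series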;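 further: bacteria incubated seven days before Alamar blue readout; 0% = bacteria only wells and 100% = bacteria with antibiotic wells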
RecA splice inh: Mtb RecA intein splicing inhibition | P9WHJ3 | cell-free RecA intein splicing, fluorescence | inhibition, %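 (about 9 µM by stock and volumes)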 | 290,000 tested, 0.75% active; in the data active means inhibition above about 30%;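 further: 0% = vehicle wells and 100% = reference inhibitor control wells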
Target sequence (P9WHJ3 whole entry, looked up, canonical isoform): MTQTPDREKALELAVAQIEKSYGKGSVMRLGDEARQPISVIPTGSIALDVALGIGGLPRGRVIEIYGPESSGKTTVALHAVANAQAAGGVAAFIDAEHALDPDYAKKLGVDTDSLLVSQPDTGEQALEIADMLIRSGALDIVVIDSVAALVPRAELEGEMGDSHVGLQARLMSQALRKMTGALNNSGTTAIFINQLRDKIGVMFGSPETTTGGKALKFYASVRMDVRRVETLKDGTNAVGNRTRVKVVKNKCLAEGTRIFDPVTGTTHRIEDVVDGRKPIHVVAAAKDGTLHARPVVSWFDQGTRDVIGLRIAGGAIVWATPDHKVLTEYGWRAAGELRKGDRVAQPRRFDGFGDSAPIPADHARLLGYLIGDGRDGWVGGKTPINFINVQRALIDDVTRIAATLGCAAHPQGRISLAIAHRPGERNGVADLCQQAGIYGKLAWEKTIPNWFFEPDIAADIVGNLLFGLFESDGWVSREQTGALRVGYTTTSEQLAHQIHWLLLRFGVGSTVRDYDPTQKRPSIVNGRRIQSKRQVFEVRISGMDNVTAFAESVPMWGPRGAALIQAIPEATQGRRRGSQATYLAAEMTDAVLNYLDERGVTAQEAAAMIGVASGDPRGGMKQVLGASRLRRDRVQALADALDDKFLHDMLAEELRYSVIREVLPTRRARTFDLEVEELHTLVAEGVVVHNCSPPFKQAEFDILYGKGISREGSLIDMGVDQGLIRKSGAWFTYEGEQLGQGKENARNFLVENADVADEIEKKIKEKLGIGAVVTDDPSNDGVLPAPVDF
YopH inh: YopH (Yersinia) phosphatase inhibition | 140,000 tested, 0.16% active | fluorescence Ex485/Em525 | inhibition, %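 (about 10 µM by stock and volumes)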;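 active means inhibition of 50% or more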;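 further: controls were vehicle for no effect and minimum signal wells for full effect; inactives centre near -20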
Mtb bLac sens: beta-lactam sensitization of Mtb H37Rv; M. tuberculosis H37Rv growth with meropenem, percent inhibition; hits of this screen are not shown here; inhibition, % at 25 µM; 330,000 tested, 0.27% active;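 active means about 74% or more and at least 40 points above the plate without the antibiotic, then above 30% in a dose series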;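 further: growth measured after seven days incubation then overnight dye step; 0% = bacteria only wells and 100% = bacteria with antibiotic; twin plates without the antibiotic show which effects depend on it; some results filed as inactive read as strong as hits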
Arbovirus inh: arbovirus infection inhibition | arbovirus infection cell-based antiviral screen | inhibition, % at 10 µM | 200,000 tested, 0.37% active;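 active means inhibition from about 30%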;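 further: bluetongue infection of BSR cells; cell survival read as ATP light after 72 h; 0% = infected wells without compound and 100% = uninfected wells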
Arbovirus inh repeat: also measured in Arbovirus inh; calls as there; inhibition, %; measured here: 10K subset replicate screen; many hits read low in the repeat;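 first of two repeat runs on a subset; 0% = infected and 100% = uninfected wells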
* marks the source's active call; other numbers are inactive results; nt = no result given; & = joins results of further samples. Only part of the results is shown; rates above refer to the full screens.

SMILES	Mtb H37Rv	RecA splice inh	YopH inh	Mtb bLac sens	Arbovirus inh	others
Cc1cccc(NC(=O)CN2C(=O)NC(C)(c3ccc4ccccc4c3)C2=O)n1 (stereo not given)	nt	8.3	nt	-10	nt
COCCCN1C(=O)C(=O)/C(=C(/O)c2ccc(OC(C)C)cc2)C1c1ccc(O)c(OC)c1 (stereo not given)	-17%	-3.9	-38	-1	2
CN(C)c1ccc(/C=C/C=C2/SC(=S)N(c3ccccc3)C2=O)cc1	10%	-0.5	-26	21	-2
CN(CC(=O)NC1CCCCCC1)S(=O)(=O)c1ccccc1	-2%	0.0	0	-3	1
CCC1(c2ccccc2)NC(=O)N(CC(=O)NCc2ccncc2)C1=O (stereo not given)	nt	1.6	nt	1	nt
COc1ccc(/C=C2\N=C(c3ccccc3)N(c3ccc(C(=O)O)cc3)C2=O)cc1OC	10%	1.9	nt	14	nt
COCCn1ccc2c(OCC(=O)NCCc3ccc(OC)c(OC)c3)cccc2c1=O	nt	-0.2	nt	-15	nt
CCNC(=O)[C@H]1O[C@@H](n2cnc3c(N)ncnc32)[C@H](O)[C@@H]1O	-2%	-1.0	nt	0	0
Cc1ccc(-c2nnn(CC(=O)N(CC3CCCO3)C(C(=O)NC(C)(C)C)c3ccc(F)cc3)n2)o1 (stereo not given)	-1%	0.3	12	-6	1
Cn1nccc1NC(=O)Nc1ccc(OC(F)(F)F)cc1	1%	-1.1	nt	-12	nt
O=C(NCCOc1ccccc1)C1Nc2ccc(OC(F)(F)F)cc2C2C=CCC12 (stereo not given)	-3%	1.4	nt	-8	nt
O=C(NCc1ccc(N2CCCC2=O)cc1)Nc1cccc2ccccc12	-9%	2.5	-162	4	-13
Cc1ccc(S(=O)(=O)N2CCN(S(=O)(=O)c3ccccc3)C2c2ccc(N(C)C)cc2)cc1 (stereo not given)	-8%	0.7	7	6	-2
NC(=O)C(NC(=O)OCc1ccccc1)c1ccccc1 (stereo not given)	nt	0.2	nt	-6	nt
Cc1cccc(C)c1-n1c(=O)n(Cc2ccccc2)c(=O)c2[nH]cnc21	-13%	2.6	nt	-3	nt
Cn1c2ccccc2c2nnc(SCc3nnc(-c4ccccc4)o3)nc21	-3%	-0.9	nt	-2	1
CN(C(=O)CSc1nnc(-c2ccccc2)n1C)C1CCS(=O)(=O)C1 (stereo not given)	1%	-3.0	nt	-1	2
CCOc1ccc(N2CC(C(=O)Nc3ccc(S(=O)(=O)Nc4ncccn4)cc3)CC2=O)cc1 (stereo not given)	-1%	nt	-3	25	13
COc1ccc2c(-c3ccccc3)cc(SCC(N)=O)nc2c1	-12%	-1.6	nt	49	nt
O=C(O)CCC(=O)CCC(=O)c1ccccc1	-4%	0.0	-4	-4	-3
CCN1C=CC(=C2C(=O)c3ccccc3C2=O)C=C1	-4%	2.5	-32	-3	-10
CC(C)C12CN3CC(C(C)C)(CN(C1)C3c1cccnc1)C2=O (stereo not given)	-1%	7.1	2	-3	1
COc1ccc(Nc2ccc(Nc3ccc(OC)cc3)nn2)cc1	3%	-2.3	-1	2	-2
O=C(COc1cccc([N+](=O)[O-])c1)NN1C(=O)c2ccccc2C1=O	nt	-2.0	nt	-1	nt

Grouped by structure: the entries above with sulfur
SMILES	Mtb H37Rv	RecA splice inh	YopH inh	Mtb bLac sens	Arbovirus inh	others
CN(C)c1ccc(/C=C/C=C2/SC(=S)N(c3ccccc3)C2=O)cc1	10%	-0.5	-26	21	-2
CN(CC(=O)NC1CCCCCC1)S(=O)(=O)c1ccccc1	-2%	0.0	0	-3	1
Cc1ccc(S(=O)(=O)N2CCN(S(=O)(=O)c3ccccc3)C2c2ccc(N(C)C)cc2)cc1 (stereo not given)	-8%	0.7	7	6	-2
Cn1c2ccccc2c2nnc(SCc3nnc(-c4ccccc4)o3)nc21	-3%	-0.9	nt	-2	1
CN(C(=O)CSc1nnc(-c2ccccc2)n1C)C1CCS(=O)(=O)C1 (stereo not given)	1%	-3.0	nt	-1	2
CCOc1ccc(N2CC(C(=O)Nc3ccc(S(=O)(=O)Nc4ncccn4)cc3)CC2=O)cc1 (stereo not given)	-1%	nt	-3	25	13
COc1ccc2c(-c3ccccc3)cc(SCC(N)=O)nc2c1	-12%	-1.6	nt	49	nt

New compounds follow
SMILES	Mtb H37Rv	RecA splice inh	YopH inh	Mtb bLac sens	Arbovirus inh	others
COc1ccc(C)cc1S(=O)(=O)NCC(c1ccc2c(c1)OCO2)N1CCN(C)CC1 (stereo not given)	nt	-0.3	nt	-10	nt
C=CCn1c(CCNC(=O)c2cccs2)nnc1SCC(=O)c1ccc(Br)cc1	-8%	-1.2	-16	-7	-7
Cc1cc(C(=O)N/N=C/c2ccccc2)c(C)o1	-5%	2.5	nt	-4	nt
c1ccc(-c2nc(-c3ccncc3)no2)cc1	-1%	-0.9	-29	5	4
CC(C)(C)NC(=O)C(=O)N/N=C/c1cccs1	-5%	-2.0	-30	-4	0
CN(C)CCNC(=O)C(=O)Nc1cc2c3c(c1)CCN3C(=O)CC2	nt	2.3	nt	0	nt
Cc1ccc(NC(=O)CSc2nnc(Cn3cnc4ccccc43)o2)cc1	8%	-7.1	-44	-7	1
O=C(NCc1ccccc1F)C1CCCN1S(=O)(=O)c1ccc(Cl)cc1 (stereo not given)	nt	-1.8	nt	-13	nt
O=C(COc1ccccc1)NC1C(=O)N2C(C(=O)O)=C(Cl)CSC12 (stereo not given)	nt	1.3	nt	-8	nt
O=S1(=O)C=C(N2CCCCC2)c2ccccc21	-7%	-1.7	4	-13	0
Cc1ccc2c(c1)cc1c(=O)n(CC(=O)NCc3ccccn3)nc(C)n12	nt	-2.5	nt	11	nt
CCN1CCN(C(=O)c2cc3ccc(OC)cc3[nH]2)CC1	nt	-0.4	nt	-3	nt
CCn1c(SCC(=O)NCc2cccs2)nnc1-c1ccncc1	1%	0.6	-33	-1	8
CC(C)Cn1c(-c2ccccc2)nc2ccccc2c1=O	3%	2.3	11	0	2
COc1ccc(NC(=S)Nc2cccc(C)n2)cc1	10%	1.9	nt	-1	nt
Cc1ccc(C)c2[nH]c(=O)c(CCNC(=O)C(C)(C)C)cc12	5%	-0.1	-17	72	5
COc1ccc2[nH]c(=O)c(CN(Cc3cccs3)S(=O)(=O)c3cccc4nsnc34)cc2c1	-6%	-0.5	-9	3	-6
COc1cc(/C=N/Nc2nc(=O)[nH]nc2C)ccc1O	-15%	-5.0	nt	3	nt
O=C(NNC(=S)Nc1ccccc1Cl)c1ccccc1Br	nt	0.0	nt	13	nt
CCOC(=O)CSc1nc(N2CCOCC2)c2c(c1C#N)CC(C)(C)N(C)C2	-5%	0.5	-10	-24	2
CCOC(=O)c1cccc(NC(=O)c2cc3ccccc3o2)c1	nt	7.8	nt	40	nt
COC(=O)Cn1cccc1C(=O)c1ccccc1	-1%	0.5	-17	-14	-1
Cc1cc(Cl)ccc1NC(=S)NCCCN1CCCC1=O	-4%	-2.1	-13	3	1
CC(C)(C)NC(=O)/C(=C\c1cccnc1)NC(=O)c1ccco1	5%	0.8	nt	-4	8
O=C(CCN1C(=O)c2ccccc2C1=O)Nc1ccc(-c2nc3ccccc3s2)cc1	1%	0.3	-26	7	-4
CCCSc1ccc(C(=O)Nc2ccc(F)cc2F)cn1	72%	2.1	nt	18	4
Nn1cnnc1N/N=C/c1ccc(Cl)c([N+](=O)[O-])c1	-3%	59*	nt	-5	17
CCN(CC1COc2ccccc2O1)C(=O)c1ccc(Cl)c(S(=O)(=O)N2CC(C)OC(C)C2)c1 (stereo not given)	nt	7.1	nt	-8	nt
COc1ccc(NC(=S)Nc2cccc([N+](=O)[O-])c2)cc1	-3%	0.9	-25	-9	8
COc1ccc(Cl)cc1NC(=O)c1ccoc1C	8%	1.9	-47	9	-3
Cc1cc(=O)nc2c3ccccc3n(CC(=O)Nc3ccccc3Br)n12	-5%	-0.2	nt	0	nt
CCCCn1c(N)c(N(Cc2ccccc2OC)C(=O)C(C)Oc2ccc(Cl)cc2)c(=O)[nH]c1=O (stereo not given)	nt	-5.6	nt	-8	nt
COCCNC(=O)/C(C#N)=C/c1ccc(N2CCOCC2)o1	-11%	-7.7	-15	-2	-1
Cc1nn(Cc2ccccc2)c(C)c1C(=O)OCC(=O)c1cc(C)n(C2CC2)c1C	8%	2.3	-32	67	-16
O=C(CCCCCNc1nc(=S)[nH]c2ccccc12)NCCc1c[nH]c2ccccc12	15%	1.2	-1	84	-2
CC(=O)OCC(=O)[C@@]1(O)CC[C@H]2[C@@H]3CCC4=CC(=O)C=C[C@]4(C)[C@@]3(Cl)[C@@H](Cl)C[C@@]21C	-9%	-1.5	nt	-3	nt
O=C(CN1C(=O)c2ccccc2C1=O)Nc1cc([N+](=O)[O-])ccc1O	-10%	nt	nt	-1	1
CCOc1ccccc1CNCCNCC(C)O (stereo not given)	-1%	11	nt	-7	-3
COc1ccc(OC)c(Cc2nnc(CCC(=O)NC(C3CC3)C3CC3)o2)c1	-4%	1.6	nt	4	-5
O=C(NCCCN1CCOCC1)c1ccc(CS(=O)(=O)c2cccc(C(F)(F)F)c2)o1	-2%	-1.3	-44	5	8
Cc1ccc(S(=O)(=O)NCC2CCC(C(=O)NCc3ccc4c(c3)OCO4)CC2)cc1 (stereo not given)	-10%	0.6	-28	5	-12
COc1ccc2c(c1)C1NC(=S)NC(C)(O2)C1C(=O)Nc1ccccc1C (stereo not given)	-4%	-8.8	-15	-9	3
COc1ccc(CN(Cc2cccn2C)C(=O)c2cc3cc(OC)ccc3[nH]2)cc1	5%	2.7	nt	5	nt
O=C(NCCc1ccc(F)cc1)N[C@@H](Cc1ccccc1)C(=O)O	nt	-1.6	nt	-4	nt
O=C(CSc1ccc2nnc(-c3ccc(Cl)cc3)n2n1)N1CCCC1	4%	-0.1	nt	-4	-6
Cc1c(C(=O)NCc2ccccc2Cl)oc2c1C(=O)CCC2	-3%	nt	-39	nt	5
O=C(NC1CCS(=O)(=O)C1)c1cccs1 (stereo not given)	nt	-1.4	nt	-4	nt
Cn1sc(NC(=O)c2ccccc2Cl)nc1=O	0%	3.5	-32	2	8
CCOc1ccc(N2C(=O)CC(NCc3ccc(S(N)(=O)=O)cc3)C2=O)cc1 (stereo not given)	-5%	0.3	nt	5	nt
O=C(CCSCc1ccccc1Cl)N1CCN(c2cccc(Cl)c2)CC1	1%	-7.6	-42	14	-10
COc1ccc(CCNC(=O)CCCCC(=O)NCCc2ccc(OC)cc2)cc1	nt	-4.3	nt	-5	nt
CCOC(=O)c1cn2nc(Oc3cccc(F)c3)ccc2n1	9%	2.6	nt	0	nt
O=C1/C(=C\c2cccs2)SC(=S)N1C1CCS(=O)(=O)C1 (stereo not given)	-7%	1.9	nt	1	2
Cn1c(=O)[nH]c(=O)c2c1nc(N1CCOCC1)n2CCSc1nc2ccccc2[nH]1	0%	0.4	13	0	4
Cc1ccc(N2CCN(C(=O)c3ccccc3Br)CC2)c(C)c1	3%	15	12	-3	-12
CCOc1cc(Br)c(C(C)NC(=O)c2cccnc2)cc1OCC (stereo not given)	nt	0.5	nt	1	nt
Cc1ccccc1CN1CCC(n2nccc2NC(=O)CCOc2ccccc2)CC1	nt	-9.2	nt	-4	nt
O=C(O)COc1ccccc1/C=N/NC(=O)/C(=C\c1ccc2c(c1)OCO2)NC(=O)c1ccccc1	-4%	9.9	nt	-2	3
COc1cc(NC(=S)Nc2cccnc2)cc(OC)c1	44%	-3.0	-32	2	1
CCOc1ccccc1C(=O)Nc1nnc(CC)s1	-5%	13	-14	2	7	Arbovirus inh repeat=1

Further compounds
SMILES	Mtb H37Rv	RecA splice inh	YopH inh	Mtb bLac sens	Arbovirus inh	others
NC(=O)[C@@H]1CCCNc2c(I)cc([N+](=O)[O-])cc2C(=O)N[C@@H](CCCN=C(N)N)C(=O)N[C@@H](CCCN=C(N)N)C(=O)N1	-3%	nt	-21	97	-5
CCOC(=O)c1oc2nc(CC(C)C)c3c(c2c1N)CCC3	27%	31*	-10	86	6
COc1ccc(C2C(O)C(c3c[nH]c4ccccc34)=NN2C(=O)CCl)cc1 (stereo not given)	nt	87*	nt	99	nt
COc1ccc(C2OC34CCCCC3C(C#N)(C#N)C2(C#N)C(=N)O4)cc1 (stereo not given)	-4%	-150	-12	2	-2
CCCCNC(=O)C1CCC(CNS(=O)(=O)c2cccc3nsnc23)CC1 (stereo not given)	nt	2.2	nt	-1	nt
O=C(CN1CCOCC1)Nc1ccc(S(=O)(=O)NC2CCCCC2)cc1	-10%	-1.4	-34	-3	14
Cn1c(=O)c2c(nc(NCc3ccco3)n2Cc2ccc(Cl)cc2Cl)n(C)c1=O	-11%	-2.4	-23	0	7
CCOC(=O)CSc1nnc2c3ccccc3n(C)c2n1	nt	-0.2	nt	41	nt
Cc1ccc(/C=C2/SC(=Nc3ccc(F)cc3)NC2=O)s1	nt	-0.9	nt	-2	nt
Nc1cc(N)c(OCC(F)(F)F)cc1OCC(F)(F)F	-9%	92*	15	-18	5
CS(=O)(=O)Nc1cccc(C(=O)CC2(O)C(=O)Nc3ccc(Br)cc32)c1 (stereo not given)	-2%	-0.9&-2.2	-44	-2	-2
C/C(=N\N)c1c(-c2ccccc2)c2cc(Br)ccc2[nH]c1=O	-3%	2.7	nt	0	-7
